Compound activity as filed in PubChem BioAssay.
NPR1 antag – human Npr1 receptor antagonism. Potency, µM (top dose mostly 46.3 µM), for the others: top-dose activity change, negative = inhibition, hits mostly inhibitors. 76,000 tested, 1.6% active. P16066. HEK293 hNpr1 GloSensor cGMP, ANP-stimulated luminescence. AID 1347048; active = well fitted inhibition curve with a large enough effect; inconclusive = small, poorly fitted or top-dose-only effect; inactive = no such curve, though single readings can be large or run the other way;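 also: nearly all actives have a fitted effect of over 60% in size; nearly all hits also lower the signal before the agonist is added; a reference antagonist and vehicle were the controls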
Target sequence (P16066 whole entry, looked up): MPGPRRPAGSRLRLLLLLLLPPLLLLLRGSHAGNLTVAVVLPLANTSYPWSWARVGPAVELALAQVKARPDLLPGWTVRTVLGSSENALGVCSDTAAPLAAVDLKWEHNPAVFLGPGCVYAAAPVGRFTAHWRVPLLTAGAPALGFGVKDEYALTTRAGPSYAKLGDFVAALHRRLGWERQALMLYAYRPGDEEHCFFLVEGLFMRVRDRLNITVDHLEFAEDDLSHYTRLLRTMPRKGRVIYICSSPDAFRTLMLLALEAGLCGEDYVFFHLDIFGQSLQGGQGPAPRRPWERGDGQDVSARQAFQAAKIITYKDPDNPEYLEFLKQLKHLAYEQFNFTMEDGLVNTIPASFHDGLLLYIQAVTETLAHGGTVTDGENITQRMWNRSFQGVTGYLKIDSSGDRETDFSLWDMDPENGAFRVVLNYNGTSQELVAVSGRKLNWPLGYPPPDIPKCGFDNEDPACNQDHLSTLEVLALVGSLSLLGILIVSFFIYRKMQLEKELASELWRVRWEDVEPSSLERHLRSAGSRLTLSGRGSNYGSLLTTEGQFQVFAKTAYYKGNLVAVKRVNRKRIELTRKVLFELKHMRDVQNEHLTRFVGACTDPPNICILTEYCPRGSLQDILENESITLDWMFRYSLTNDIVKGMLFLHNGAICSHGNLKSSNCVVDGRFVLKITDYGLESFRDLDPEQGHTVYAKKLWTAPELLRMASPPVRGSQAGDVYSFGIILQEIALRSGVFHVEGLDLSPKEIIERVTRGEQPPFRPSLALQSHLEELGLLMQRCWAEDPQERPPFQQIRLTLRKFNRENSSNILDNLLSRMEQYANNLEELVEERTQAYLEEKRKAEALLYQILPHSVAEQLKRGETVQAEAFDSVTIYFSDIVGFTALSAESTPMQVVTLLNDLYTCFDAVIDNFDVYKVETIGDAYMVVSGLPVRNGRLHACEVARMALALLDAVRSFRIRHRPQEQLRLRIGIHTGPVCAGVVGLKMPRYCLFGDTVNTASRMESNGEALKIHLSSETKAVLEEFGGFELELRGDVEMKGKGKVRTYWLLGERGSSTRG
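HEK293 cells stably expressing human Npr1 and cGMP GloSensor pGS-40F, loaded 2 h with 2% GloSensor reagent, given compound 30 min at room temperature. Luminescence read before and 20 min after 0.1 nM hNppA.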
Starred values were filed as active, the others as inactive; ? = inconclusive; [ ] = dose if it differs, or a comment. % is scaled to controls: 0 for no effect and ±100 for the full control effect; potency is read from the fitted curve at half-maximal effect.

SMILES	NPR1 antag
COC(=O)C1=C(C)N=C2SC=C(CC(=O)N3CCCC3)N2C1c1cc(OC)ccc1OC (stereo unspecified)	-16%
CCOC(=O)c1cccc(NC(=O)N2CC[C@@H](CC(=O)NCCSC)[C@@H](CC)C2)c1	-11%[70.6 µM]
Cc1ccc2nsnc2c1S(=O)(=O)N[C@@H]1CC[C@@H](N)C1	2%
COc1ccc(CN2CCC3(CC2)CC(=O)c2ccccc2O3)cc1	-1%[70.6 µM]
O=C(Cc1ccc2c(c1)OCCCO2)NC1CCCc2c1[nH]c1c(Cl)cccc21 (stereo unspecified)	-6%
CCn1cc(S(=O)(=O)N2CCCCC2c2nc(CCOc3ccc(F)cc3)no2)cn1 (stereo unspecified)	-19%
Cc1cc(C)n(Cc2cc(C(=O)N(C)CCOc3ccccc3)n[nH]2)n1	4%
O=C(CCC[C@@H]1[C@H]2CCCN3CCC[C@@H](CN1C(=O)CCc1ccccc1)[C@@H]23)N1CCOCC1	-2%
CN(C)Cc1cn(C[C@H]2C[C@@H](NC(=O)c3nc4ccccc4s3)[C@H](O)[C@@H]2O)nn1	2%
C=CCNC(=O)[C@@H]1Cc2cn(Cc3ccncc3)c3cccc(c23)[C@H](CC(C)C)N1	-26%[70.6 µM]
Cc1cc(-c2cc3[nH]ccc3c(C(=O)NCc3c(C)cc(C)[nH]c3=O)n2)ccn1	0%[70.6 µM]
Cc1ccsc1C(=O)N1CCCC(CN2CCCC2)CC1 (stereo unspecified)	-2%
COc1nc2nc(CCc3ccccc3)n(C)c2cc1-c1cncnc1	4%[70.6 µM]
COc1ccc(NC(=O)Cn2cnnn2)c(NC(=O)C(C)C)c1	1%
CN(Cc1cccnc1)C(=O)[C@H]1CN(Cc2ccccc2)C[C@H]1C(=O)O	-5%
O=C(Cc1cccnc1)NC1CCN(c2cnn(CC3CC3)c(=O)c2)CC1	3%
CC(C)CNC(=O)C1CCc2sc(C(=O)N3CCCCC3)cc2C1 (stereo unspecified)	-8%
CCCNC(=O)N1CCCCC1c1nc(CCOc2ccc(F)cc2)no1 (stereo unspecified)	-21%
COc1ccc2c(c1)c(CN1CCOCCNC(=O)CC1)cn2C	-3%
COc1cccc(C(=O)N(C)C(C)c2cccs2)c1 (stereo unspecified)	-7%[70.6 µM]
CCC(C)NC(=O)CC1=CSC2=NC(C)=C(C(=O)OC)C(c3cccc([N+](=O)[O-])c3)N12 (stereo unspecified)	-6%
CCOc1cccc(CNC(=O)CC2CCOCC2)c1	6%
Cc1cc(OCC(=O)c2ccc3c(c2)N(CC(=O)NCC2CC2)C(=O)CO3)ccc1Cl	-8%
CN1[C@@H](CCC(=O)N2CCN(c3ccccc3)CC2)CNC(=O)[C@@H]2[C@H]1CCN2Cc1ccc(CO)o1	0%
Cc1cccc(C)c1OCc1cc(C(=O)N(C)CCCC2CCCC2)no1	14%

Fetched by structure from the entries so far (6):
SMILES	NPR1 antag
CC(C)CNC(=O)C1CCc2sc(C(=O)N3CCCCC3)cc2C1 (stereo unspecified)	-8%
COC(=O)C1=C(C)N=C2SC=C(CC(=O)N3CCCC3)N2C1c1cc(OC)ccc1OC (stereo unspecified)	-16%
CN1[C@@H](CCC(=O)N2CCN(c3ccccc3)CC2)CNC(=O)[C@@H]2[C@H]1CCN2Cc1ccc(CO)o1	0%
O=C(Cc1ccc2c(c1)OCCCO2)NC1CCCc2c1[nH]c1c(Cl)cccc21 (stereo unspecified)	-6%
Cc1cc(-c2cc3[nH]ccc3c(C(=O)NCc3c(C)cc(C)[nH]c3=O)n2)ccn1	0%[70.6 µM]
COc1nc2nc(CCc3ccccc3)n(C)c2cc1-c1cncnc1	4%[70.6 µM]

Later entries.
SMILES	NPR1 antag
CN(C)Cc1cn(C[C@H]2C[C@@H](NS(C)(=O)=O)[C@H](O)[C@@H]2O)nn1	-4%[70.6 µM]
CCN1C(=O)C2(CCN(C(=O)NC3CCCCC3)CC2)c2ccccc21	-4%
CCOc1ccc(NC(=O)N2CCc3cc(OC)c(OC)cc3C2CNC(=O)C2CC2)cc1 (stereo unspecified)	6%
COc1ccc(CN2CCOc3nc(-c4ccc(C(=O)N(C)C)cc4)ncc3C2=O)cc1	-18%[70.6 µM]
COc1ccccc1OCCNC(=O)[C@H]1CCC[C@H]1NC(=O)c1cnc(C)cn1	5%
O=C(C1CCCO1)N1CCN(c2nc(-c3cccnc3)nc3c2CNC3)CC1 (stereo unspecified)	26%
O=C(c1ccc2c(c1)OCO2)N1CCC2(CC1)CC(c1ccccc1)=NO2	-9%
COc1ccc(-c2cnc([C@@H]3COCCN3Cc3ccc(C)cc3)[nH]2)cc1	-20%[70.6 µM]
CCc1ccc(CN2C[C@@H]3C(=O)N(Cc4ccc5c(c4)OCO5)C(=O)[C@@H]3C2)cc1	?
COc1cccc2c1OCCCN(C(=O)c1ccc(C3CCCNC3)cc1)C2 (stereo unspecified)	0%
O=C1Cc2c(-c3ccc4c(c3)OCO4)n[nH]c2CN1Cc1ccccc1	3%[70.6 µM]
COc1ccccc1C(=O)N1CCN(C(=O)c2nnn3c2COC(c2ccc(C)cc2)C3)CC1 (stereo unspecified)	?
COc1ccc(-c2ccc3c(c2)C(=O)N2CC[C@H](NC(=O)C4CCNCC4)C[C@H]2C(=O)N3)c(OC)c1	2%
CC(C)c1nnc(C2CN(C(=O)c3cccc(Br)c3)CC23CCOCC3)o1 (stereo unspecified)	-2%
COCCN1C(=O)[C@H]2CN(Cc3ccc(OC)cc3)C[C@H]2C1=O	2%
CC(C)NC(=O)N1CCN(S(=O)(=O)c2ccccc2)[C@@H](C(=O)N[C@H](Cc2c[nH]c3ccccc23)C(N)=O)C1	1%
COCCNC(=O)c1ccc2c(c1)OCCN(c1ccccc1)C2	-1%[70.6 µM]
Cc1cn2nc(C(=O)NCc3cccc(C(F)(F)F)c3)cc2c(=O)[nH]1	3%
Cc1ccc(NC(=O)N[C@@H]2C=C(C(=O)N[C@@H](Cc3cccs3)C(N)=O)C[C@@H](O)[C@@H]2O)cc1	2%
CCOCC(=O)NC1CCN(c2cnn(C)c(=O)c2)CC1	7%
CC[C@H]1CN(C(=O)NC(C)C)CC[C@H]1CC(=O)Nc1ccccc1	4%[70.6 µM]
CCOC(=O)C1(Cc2ccc(Cl)cc2)CCN(Cc2ccc(OC)cc2O)CC1	?
O=C(CC1CCN(S(=O)(=O)c2cccs2)C1)NCc1ccccc1 (stereo unspecified)	-1%
CCOCC(=O)N[C@@H]1CN(Cc2ccccc2)C[C@H]1CN(C)C	-14%
O=C(NCc1ccccc1)NC[C@H]1Cn2c(-c3ccc4c(c3)OCO4)cnc2CO1	4%[70.6 µM]

(further entries)
SMILES	NPR1 antag
COCCC1(NS(C)(=O)=O)CCN(C(=O)c2cccc(C#N)c2)CC1	4%
COCCn1c(=O)c2c(n1Cc1ccccc1)CN(Cc1cccc(C)n1)CC2	-3%[70.6 µM]
COc1cccc(CC(=O)N2CC(c3nnc(-c4ccncc4)o3)C3(CCOCC3)C2)c1 (stereo unspecified)	0%
CN1CCc2[nH]cnc2C12CCN(C(=O)Cc1ccc(F)cc1Cl)CC2	-1%
Cc1ccc(NC(=O)N2CCC(CCNC(=O)c3ccc(F)cc3)CC2)cc1F	-28%
CN1[C@@H](CCC(=O)NCc2ccccc2)CNC(=O)[C@@H]2[C@H]1CCN2Cc1cccc(Cl)c1	-2%
Cc1ccccc1CN1C[C@@H](CO)[C@H](c2nc(-c3ccncc3)no2)C1	?
Cc1cc(CNS(=O)(=O)c2ccc3c(c2)CCN(C(=O)C(O)C(C)C)C3)no1 (stereo unspecified)	6%
O=C(Nc1cccc(C2OC(=O)N(Cc3ccccc3)C2C(=O)Nc2ccccc2)c1)c1ccco1 (stereo unspecified)	0%
COc1cc(F)ccc1-c1nccc2c(=O)cc(N3CCN(C)CC3)oc12	4%[70.6 µM]
Cc1ccccc1CC(=O)N1CCCN(C(=O)C2CC2)c2ccccc21	-3%
COCCOc1ccc2c(n1)CCN(C(=O)c1ccnn1C)C2	3%
CC(C)(O)c1cc(CC2(NCC3CCCCC3)COC2)no1	12%[70.6 µM]
CN(Cc1cccc(F)c1)C1CCOc2ccccc21 (stereo unspecified)	25%[70.6 µM]
N#Cc1cccnc1N1CCC(CO)(Cc2ccccc2C(F)(F)F)CC1	?
Cc1cc(=O)n(CC(=O)Nc2cccc(Cl)c2)c(N2CCc3ccccc3C2)n1	20µM*
O=C(CN1C(=O)C(c2ccccc2)=NC12CCCC2)NCc1ccccc1Cl	-21%
CCC(C)NC(=O)N1CC(c2nc(CCOCC3CCOCC3)no2)C1 (stereo unspecified)	6%
CN(Cc1ccccc1)C(=O)CCNc1c(-c2cccc(F)c2)nc2cnccn12	-18%
CCOC(=O)C1=C(C)N=C2SC=C(CC(=O)Nc3ccc(OC)cc3)N2C1c1ccccc1F (stereo unspecified)	-26%
Cc1ccc(S(=O)(=O)N2CCCC(Cn3cnc4cccnc43)C2)cc1F (stereo unspecified)	-19%
COc1ccc(N2CCOC3CCN(CCCc4ccccc4)CC3C2=O)cc1 (stereo unspecified)	3%[70.6 µM]
COc1cccc(C(=O)N2CCn3c(nnc3C3CC3)C2)c1	-14%[70.6 µM]
O=C(Nc1ccnn1C1CCN(Cc2ccc(-c3ccco3)cc2)CC1)C1CC1	4%
Cc1ccc(-c2nc(C(=O)NCc3ccc(Cl)cc3)no2)cc1	2%

Next results follow:
SMILES	NPR1 antag
Cc1ccc(CNC(=O)N2CCCC(c3noc(COc4ccccc4)n3)C2)cc1 (stereo unspecified)	-9%
CCCN1CC2(CCN(C)CC2)CC1C(=O)N(C)Cc1ccn[nH]1 (stereo unspecified)	-1%
O=C(Cn1cccc1-c1nc(-c2ccccc2)no1)NCc1ccccc1	-13%
O=C(NCCc1cnccn1)c1coc(COc2cccc(C(F)(F)F)c2)n1	15%
Cc1ccccc1-c1cc(C(=O)NCCc2cnc[nH]2)c2c(c1)N(C)CCO2	-3%[70.6 µM]
CN(C)C[C@@H]1CN(Cc2ccccc2)C[C@H]1NC(=O)NCc1ccco1	-4%
O=C(Cc1ccncc1)N1CCC(N2C(=O)C3(CCCCC3)C2c2ccccc2)CC1 (stereo unspecified)	7%
O=C(Nc1ccccc1)N1CCC2(CC1)C(=O)NCN2Cc1ccc(Cl)cc1	0%
Cc1cc2cc(-c3c(C)noc3C)nc(N3CCN(C)C(=O)C3)c2o1	0%[70.6 µM]
O=C(CC[C@@H]1CNC(=O)[C@@H]2C[C@H](NCc3ccccn3)CN12)NCc1ccccc1	0%[70.6 µM]
CC1=C[C@@H](CNC(=O)NCCO)[C@H](C(C)C)C[C@H]1CC(=O)NCc1cccnc1	0%[70.6 µM]
CC[C@@]1(O)CCN(C(=O)c2cccc(CCC(C)(C)O)c2)C[C@H]1O	0%
Cc1ccc(CN2CC(Oc3ccccc3C(=O)N3CCOCC3)C2)cc1C	2%
CCC(C)(C)NC(=O)c1cccc2c1CCN2C(=O)Nc1cccc(C)c1	-22%
CCc1ccc(CNC(=O)C2c3ccccc3CC(=O)N2C(C)C)cc1 (stereo unspecified)	2%
O=C(Cc1ccsc1)N1CCC(n2cc(-c3nc(C4CC4)no3)nn2)C1 (stereo unspecified)	-3%
O=C(c1ccncc1)N1CCC(N2CC3CC(C2)[C@H]2CCCC(=O)N2C3)CC1 (stereo partly specified)	-3%
Cc1cc(C(=O)N2CCCC2c2nncn2CCN(C)C)n(C)n1 (stereo unspecified)	-21%
CN1CCCCCC(O)c2cc(C(=O)NCC3CC3)ccc21 (stereo unspecified)	-4%
COc1ccc(C(=O)NC2CCN(c3cn[nH]c(=O)c3)CC2)cn1	1%
COc1ccc(C(=O)NC(C(=O)NCC(C)C)C2CCN(C(=O)C3CCCC3)CC2)cc1 (stereo unspecified)	1%
C=CCN(C)C(=O)C[C@@H]1c2nc(NC(=O)c3ccc(C(C)(C)C)cc3)sc2C[C@@H]2[C@](C)(CO)[C@H](O)CC[C@]21C	5%
O=C(NC[C@H]1O[C@H](Cc2cc(COc3ccccc3)on2)CC[C@@H]1O)C1CCC1	-1%[70.6 µM]
COc1ccc(CC(=O)NC2CCCN(c3cc(-c4ccc(F)cc4)[nH]n3)C2)cc1 (stereo unspecified)	-3%
COc1ccc(NC(=O)N2CCOC(c3ccc(Cl)cc3)C2)c(C)c1 (stereo unspecified)	-16%

An excerpt from above in order of their number in NPR1 antag, rising:
SMILES	NPR1 antag
Cc1cc(C(=O)N2CCCC2c2nncn2CCN(C)C)n(C)n1 (stereo unspecified)	-21%
COc1ccc(CC(=O)NC2CCCN(c3cc(-c4ccc(F)cc4)[nH]n3)C2)cc1 (stereo unspecified)	-3%
C=CCN(C)C(=O)C[C@@H]1c2nc(NC(=O)c3ccc(C(C)(C)C)cc3)sc2C[C@@H]2[C@](C)(CO)[C@H](O)CC[C@]21C	5%

Following part
SMILES	NPR1 antag
O=C1CC(c2ccccc2)N(C(=O)CNC(=O)c2ccsc2)CCCCCN1 (stereo unspecified)	0%
COCCn1nc2n(c1=O)CCN(Cc1scnc1C)CC2	0%
COc1cccc(CN2CCCC3(CNc4ccccc4[S+](=O)([O-])N3)C2)c1 (stereo unspecified)	3%
CCCNC(=O)N1CCCC2(CCC(=O)N(CCc3cnc[nH]3)C2)C1 (stereo unspecified)	0%
Cn1cccc1C(=O)N1CCC2(CCC(=O)N(CC3CCCO3)C2)CC1 (stereo unspecified)	7%
CS(=O)(=O)N(Cc1cccnc1)C1CN(C(=O)CC2CCCCC2)C1	0%
CN(C)C(=O)N1CCCC(C(=O)NCCc2nc(-c3ccccn3)no2)C1 (stereo unspecified)	11%

Some of the compounds tested; rates above refer to the full screens.
